Vaccinia stage = blocks a specific stage of Vaccinia orthopoxvirus infection. Vaccinia-infected cells, mCherry/Venus stage reporter fluorescence; hits give low values; some inactives read as strong as hits. activity change (mCherry), % (concentration not given with the values). 89,000 compounds, 0.01% hits. AID 1053133;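 active = mCherry past -33% and 40 or more points under the early reporter, replicates agreeing; inconclusive = past -33% without that gap or agreement; tested in A549 cells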;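 note: scaled between vehicle wells and reference inhibitor wells; 23 nL library stock went into each well; one replicate is shown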
Vaccinia stage Venus = also measured in Vaccinia stage; calls as there; activity change (Venus), %; measured here: Venus reporter, other viral stage;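 negative = less Venus signal; first of two replicates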
The depositor's hits bear a star. Not all compounds are listed (hit frequency here may not be typical).

Start of the listing, in advance:
For COC(=O)[C@@H]1[C@@H](CO)[C@@H]2Cn3c(cccc3=O)[C@H]1N2C(=O)C1CCCC1 the results were Vaccinia stage 9 and Vaccinia stage Venus 6.
`CO[C@H]1CN(C)C(=O)c2ccc(NS(=O)(=O)c3ccc(Oc4ccccc4)cc3)cc2OC[C@H](C)NC[C@@H]1C` gave Vaccinia stage -10 and Vaccinia stage Venus -11.
For COC(=O)[C@H]1[C@H](CO)[C@H]2Cn3c(ccc(-c4ccccc4F)c3=O)[C@@H]1N2C(=O)C1CCC1 the results were Vaccinia stage 17 and Vaccinia stage Venus 7.
For O=C(Nc1ccccc1F)N[C@H]1CC[C@H](CCNC(=O)C2CCCCC2)O[C@H]1CO the results were Vaccinia stage -9 and Vaccinia stage Venus -3.
CC(=O)NC[C@H]1[C@@H](c2ccc(C3=CCCC3)cc2)[C@@H](CO)N1C(=O)C1CC1 was read as Vaccinia stage 6 and Vaccinia stage Venus -3.
For COC(=O)[C@H]1[C@H](CO)[C@H]2Cn3c(ccc(C4=CCCCC4)c3=O)[C@@H]1N2CC1CCCCC1 the results were Vaccinia stage inconclusive.
O=C(C[C@H]1C[C@H]2c3cc(NC(=O)c4cccnc4)ccc3O[C@H]2[C@H](CO)O1)NCCc1ccccc1 was read as Vaccinia stage 2 and Vaccinia stage Venus 4.
Screening C[C@@H]1CN([C@H](C)CO)C(=O)c2cc(-c3cncnc3)cnc2O[C@@H]1CN(C)Cc1ccc(Oc2ccccc2)cc1 returned Vaccinia stage inconclusive and Vaccinia stage Venus -17.

The list itself, from the first entry:
For COC(=O)[C@@H]1[C@@H](CO)[C@@H]2Cn3c(cccc3=O)[C@H]1N2C(=O)C1CCCC1 the results were Vaccinia stage 9 and Vaccinia stage Venus 6.
`CO[C@H]1CN(C)C(=O)c2ccc(NS(=O)(=O)c3ccc(Oc4ccccc4)cc3)cc2OC[C@H](C)NC[C@@H]1C` gave Vaccinia stage -10 and Vaccinia stage Venus -11.
For COC(=O)[C@H]1[C@H](CO)[C@H]2Cn3c(ccc(-c4ccccc4F)c3=O)[C@@H]1N2C(=O)C1CCC1 the results were Vaccinia stage 17 and Vaccinia stage Venus 7.
For O=C(Nc1ccccc1F)N[C@H]1CC[C@H](CCNC(=O)C2CCCCC2)O[C@H]1CO the results were Vaccinia stage -9 and Vaccinia stage Venus -3.
CC(=O)NC[C@H]1[C@@H](c2ccc(C3=CCCC3)cc2)[C@@H](CO)N1C(=O)C1CC1 was read as Vaccinia stage 6 and Vaccinia stage Venus -3.
For COC(=O)[C@H]1[C@H](CO)[C@H]2Cn3c(ccc(C4=CCCCC4)c3=O)[C@@H]1N2CC1CCCCC1 the results were Vaccinia stage inconclusive.
O=C(C[C@H]1C[C@H]2c3cc(NC(=O)c4cccnc4)ccc3O[C@H]2[C@H](CO)O1)NCCc1ccccc1 was read as Vaccinia stage 2 and Vaccinia stage Venus 4.
Screening C[C@@H]1CN([C@H](C)CO)C(=O)c2cc(-c3cncnc3)cnc2O[C@@H]1CN(C)Cc1ccc(Oc2ccccc2)cc1 returned Vaccinia stage inconclusive and Vaccinia stage Venus -17.
`O=C(Cc1ccccc1)N[C@H]1CC[C@@H](CC(=O)N2CCOCC2)O[C@H]1CO` gave Vaccinia stage -3 and Vaccinia stage Venus -2.
C[C@@H]1CN([C@H](C)CO)C(=O)c2c(c3ccccc3n2C)-c2ccccc2CO[C@@H]1CN(C)S(=O)(=O)c1ccc(C#N)cc1 was read as Vaccinia stage inconclusive.
C[C@@H]1CN([C@H](C)CO)C(=O)CCCn2cc(nn2)CO[C@H]1CN(C)C(=O)Nc1cccc(Oc2ccccn2)c1 was read as Vaccinia stage 12 and Vaccinia stage Venus 3.
`CCCNC(=O)[C@H]1[C@H](CO)[C@H]2Cn3c(ccc(-c4ccccc4)c3=O)[C@H]2N1CC` gave Vaccinia stage -9 and Vaccinia stage Venus 0.
For C[C@H]1CN([C@@H](C)CO)C(=O)c2cccc(NC(=O)c3ccncc3)c2O[C@H]1CN(C)S(=O)(=O)c1cccs1 the results were Vaccinia stage 5 and Vaccinia stage Venus 18.
Screening C[C@@H]1CN([C@H](C)CO)C(=O)c2cc(NC(=O)CCC(F)(F)F)ccc2O[C@@H](C)CCCCO[C@@H]1CN(C)C(=O)CCC(F)(F)F returned Vaccinia stage 22 and Vaccinia stage Venus 8.
For C[C@H]1CN([C@@H](C)CO)C(=O)c2cc(C#Cc3ccccc3)cnc2O[C@H]1CN(C)C(=O)c1ccccn1 the results were Vaccinia stage 9 and Vaccinia stage Venus 8.
CCCNC(=O)N1[C@@H](C#N)[C@H](c2ccc(C#Cc3ccc(F)cc3)cc2)[C@@H]1CO was read as Vaccinia stage inconclusive.
Screening C[C@H](CO)N1C[C@H](C)[C@H](CN(C)Cc2ccc(Cl)c(Cl)c2)Oc2ccc(NC(=O)C3CC3)cc2CC1=O returned Vaccinia stage -32 and Vaccinia stage Venus -26.
`COc1ccc(-c2ccc([C@H]3[C@@H](CO)N4C(=O)CNC[C@@H]34)cc2)cc1` gave Vaccinia stage 23 and Vaccinia stage Venus 14.
CO[C@H]1CN(C)C(=O)c2cc(NS(C)(=O)=O)ccc2OC[C@@H](C)N(Cc2nccs2)C[C@H]1C was read as Vaccinia stage 3 and Vaccinia stage Venus -9.
CN1[C@@H]2c3ccc(-c4ccccc4)c(=O)n3C[C@H]1[C@H](CO)[C@H]2C(=O)Nc1nccs1 was read as Vaccinia stage 11 and Vaccinia stage Venus 6.
For C[C@@H]1CN([C@H](C)CO)C(=O)c2cccc(NC(=O)CCCCCC(=O)Nc3ccccc3N)c2O[C@H]1CN(C)Cc1ccc(Cl)c(Cl)c1 the results were Vaccinia stage 7 and Vaccinia stage Venus 11.
CC(C)NC(=O)N(C)C[C@H]1OCc2ccccc2-c2c(n(C)c3ccccc23)C(=O)N([C@@H](C)CO)C[C@@H]1C was read as Vaccinia stage 20 and Vaccinia stage Venus 15.
COc1ccc(NC(=O)N(C)C[C@@H]2Oc3c(NC(=O)c4cnccn4)cccc3C(=O)N([C@H](C)CO)C[C@@H]2C)cc1 was read as Vaccinia stage 8 and Vaccinia stage Venus 2.
COc1ccc(S(=O)(=O)Nc2ccc3c(c2)C(=O)N([C@H](C)CO)C[C@H](C)[C@H](CN(C)S(=O)(=O)c2ccc(F)cc2)OCCCC[C@@H](C)O3)cc1 was read as Vaccinia stage 10 and Vaccinia stage Venus 7.
`O=C(C[C@@H]1C[C@H]2c3cc(NC(=O)NC4CCCC4)ccc3O[C@H]2[C@H](CO)O1)NCc1ccc2c(c1)OCO2` gave Vaccinia stage 11 and Vaccinia stage Venus 10.
For CCCN1[C@H](C(=O)N(C)C)[C@@H](CO)[C@@H]2Cn3c(ccc(/C=C/c4ccccc4)c3=O)[C@@H]21 the results were Vaccinia stage -8 and Vaccinia stage Venus -8.
Screening CCCNC(=O)N1[C@H](CO)[C@@H](c2ccccc2-c2cccc(C)c2)[C@@H]1C#N returned Vaccinia stage 0 and Vaccinia stage Venus 1.
Screening Cc1ccc(S(=O)(=O)N[C@H]2C=C[C@@H](CC(=O)NC3CCCCC3)O[C@@H]2CO)cc1 returned Vaccinia stage 8 and Vaccinia stage Venus 9.
CO[C@@H]1CN(C)C(=O)c2ccc(NS(=O)(=O)c3ccccc3)cc2OC[C@@H](C)N(Cc2ccccn2)C[C@@H]1C was read as Vaccinia stage 30 and Vaccinia stage Venus 21.
`CN1C(=O)c2cc(NS(=O)(=O)c3ccc(Cl)cc3)ccc2OC[C@H]2O[C@H](CC(=O)N3CCc4ccccc4C3)CC[C@@H]21` gave Vaccinia stage -23 and Vaccinia stage Venus -19.
For CC(C)NC(=O)Nc1ccc2c(c1)C(=O)N([C@H](C)CO)C[C@@H](C)[C@@H](CN(C)S(=O)(=O)c1cn(C)cn1)OCCCC[C@H](C)O2 the results were Vaccinia stage 16 and Vaccinia stage Venus 12.
`CC(=O)N1[C@H](CO)[C@@H](c2ccc(-c3ccccc3F)cc2)C12CN(CC1CCOCC1)C2` gave Vaccinia stage -28 and Vaccinia stage Venus -10.
Screening C[C@@H]1CN([C@H](C)CO)C(=O)Cc2cc(NS(C)(=O)=O)ccc2O[C@H]1CN(C)S(C)(=O)=O returned Vaccinia stage -7 and Vaccinia stage Venus 13.
`C[C@@H]1CCCCO[C@@H](CN(C)Cc2ccc(Cl)c(Cl)c2)[C@H](C)CN([C@@H](C)CO)C(=O)c2cc(NC(=O)C3CCCCC3)ccc2O1` gave Vaccinia stage inconclusive.
C[C@@H]1CN([C@@H](C)CO)C(=O)c2cc(NS(C)(=O)=O)ccc2O[C@@H](C)CCCCO[C@@H]1CN(C)C(=O)Nc1ccc(F)cc1 was read as Vaccinia stage 11 and Vaccinia stage Venus 5.
Screening C[C@H]1CN([C@@H](C)CO)C(=O)Cc2cc(NC(=O)NC3CCCCC3)ccc2O[C@H]1CN(C)C(=O)Nc1ccc(F)cc1 returned Vaccinia stage -2 and Vaccinia stage Venus -1.
COc1ccc(S(=O)(=O)Nc2ccc3c(c2)C(=O)N([C@@H](C)CO)C[C@H](C)[C@H](CN(C)S(=O)(=O)c2c(C)noc2C)O3)cc1 was read as Vaccinia stage 8 and Vaccinia stage Venus 0.
`O=C(Cc1ccccc1)N[C@@H]1CC[C@@H](CC(=O)N2CCCCC2)O[C@H]1CO` gave Vaccinia stage 1 and Vaccinia stage Venus 3.
Screening COc1cccc(S(=O)(=O)N(C)C[C@@H]2Oc3ncc(-c4cc5ccccc5o4)cc3C(=O)N([C@H](C)CO)C[C@@H]2C)c1 returned Vaccinia stage inconclusive.
Screening C[C@H]1CN([C@@H](C)CO)C(=O)c2cccc(NC(=O)c3nc4ccccc4s3)c2O[C@@H]1CN(C)S(=O)(=O)c1ccc(Cl)cc1 returned Vaccinia stage -15 and Vaccinia stage Venus -11.
COc1ccc2c3c(n(C)c2c1)[C@H](CO)N(C)CC31CN(C(=O)CN2CCOCC2)C1 was read as Vaccinia stage 27 and Vaccinia stage Venus 14.
For CO[C@H](CN(C)S(=O)(=O)c1ccc(Cl)cc1)[C@@H](C)CN(Cc1ccccc1Cl)[C@H](C)CO the results were Vaccinia stage -12 and Vaccinia stage Venus -9.
Screening COc1ccc(NC(=O)Nc2cccc3c2O[C@H](CN(C)S(C)(=O)=O)[C@H](C)CN([C@H](C)CO)C3=O)cc1 returned Vaccinia stage 16 and Vaccinia stage Venus 16.
C/C=C/c1cnc2c(c1)C(=O)N([C@@H](C)CO)C[C@H](C)[C@@H](CN(C)Cc1ccccc1)O2 was read as Vaccinia stage 12 and Vaccinia stage Venus -1.
Screening COc1ccccc1CNC(=O)C[C@@H]1C[C@@H]2c3cc(NS(=O)(=O)c4ccc(F)cc4)ccc3O[C@@H]2[C@@H](CO)O1 returned Vaccinia stage -24 and Vaccinia stage Venus -17.
For Cc1cccc(S(=O)(=O)N2CC[C@H]3[C@H](CO)Nc4ccc(C#Cc5ccc(F)cc5)cc4[C@H]32)c1 the results were Vaccinia stage -3 and Vaccinia stage Venus -4.
For Cc1noc(C)c1NC(=O)Nc1ccc2c(c1)CC(=O)N([C@H](C)CO)C[C@@H](C)[C@H](CN(C)S(=O)(=O)c1ccccc1)O2 the results were Vaccinia stage 18 and Vaccinia stage Venus 11.
`CN(C)CC(=O)N1[C@@H]2c3ccc(-c4ccc(F)cc4)c(=O)n3C[C@@H]2[C@@H](CO)[C@@H]1C(=O)NC1CCC1` gave Vaccinia stage 18 and Vaccinia stage Venus 15.
`CC(C)NC(=O)N1Cc2cc(C(=O)NC3CCCC3)nc(-c3cccc(-c4cccnc4)c3)c2[C@@H]1CCO` gave Vaccinia stage -8 and Vaccinia stage Venus -5.
For COCC#Cc1ccc([C@@H]2[C@H](CO)N3C(=O)CN(C(=O)c4cccnc4)C[C@@H]23)cc1 the results were Vaccinia stage 27 and Vaccinia stage Venus 19.
For COc1ccc(NC(=O)Nc2ccc3c(c2)C(=O)N([C@H](C)CO)C[C@H](C)[C@H](CN(C)S(=O)(=O)c2ccccc2)OCCCC[C@H](C)O3)cc1 the results were Vaccinia stage -24 and Vaccinia stage Venus -13.
For CC(C)C#Cc1ccc([C@H]2[C@@H](CO)N(C(=O)C3CC3)[C@H]2C#N)cc1 the results were Vaccinia stage 29 and Vaccinia stage Venus 13.
For O=C(Cc1cccnc1)N1CCCCN2[C@H](C1)[C@H](c1ccc(C#CC3CCCC3)cc1)[C@@H]2CO the results were Vaccinia stage inconclusive.
Screening COc1ccc(NC(=O)N(C)C[C@H]2Oc3ccc(NS(=O)(=O)c4ccccc4)cc3C(=O)N([C@@H](C)CO)C[C@@H]2C)cc1 returned Vaccinia stage 23 and Vaccinia stage Venus 15.
C#CCNC(=O)C1=C[C@H](c2cn(C(C)=O)c3ccccc23)C[C@H](OCc2ccc(CO)cc2)O1 was read as Vaccinia stage -8 and Vaccinia stage Venus -15.
`C[C@H]1CN([C@@H](C)CO)C(=O)c2cc(NS(=O)(=O)c3ccc(Cl)cc3)ccc2O[C@@H]1CN(C)Cc1ccc(C(=O)Nc2ccccc2N)cc1` gave Vaccinia stage 8 and Vaccinia stage Venus -1.
Screening O=C(NC[C@@H]1[C@@H](c2ccccc2)[C@@H](CO)N1C(=O)Cc1cccnc1)C1CC1 returned Vaccinia stage 11 and Vaccinia stage Venus 9.
`CC(C)CC#Cc1ccc2c(c1)O[C@@H](CN(C)Cc1ccccn1)[C@H](C)CN([C@H](C)CO)S2(=O)=O` gave Vaccinia stage -30 and Vaccinia stage Venus -31.
`CNC[C@@H]1Oc2c(NC(=O)c3ccncc3)cccc2C(=O)N([C@H](C)CO)C[C@H]1C` gave Vaccinia stage 13 and Vaccinia stage Venus 5.
For C[C@@H]1CN([C@@H](C)CO)C(=O)Cc2cc(N(C)C)ccc2O[C@H]1CN(C)Cc1ccc(C(=O)Nc2ccccc2N)cc1 the results were Vaccinia stage -26 and Vaccinia stage Venus -24.
Screening C[C@H](CO)N1C[C@H](C)[C@H](CN(C)Cc2ccc(-c3ccccc3)cc2)Oc2ccc(NC(=O)CCCN(C)C)cc2CC1=O returned Vaccinia stage -13 and Vaccinia stage Venus -17.
